Screening data: PubChem, Fisher Drug Discovery Resource Center
NPYLR7 ag – agonists of mosquito NPYLR7 receptor, primary screen, cell-based, Aedes aegypti, calcium fluorescence, mosquito biting behavior; Aedes aegypti neuropeptide Y-like receptor 7 (NPYLR7); HEK293T NPYLR7/Galpha15, GCaMP6s calcium fluorescence; activation, % at 10 µM; 0.15% of 270,000 active; AID 1259423, 2018; in the data active means activation above about 40%;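 further: 0% = vehicle and 100% = reference agonist at the receptor; some compounds past the cut are filed as inactive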
NPYLR7 ag max-min – recorded beside NPYLR7 ag, whose call it bears; activation, %; measured here: Max-Min RFU normalised activation; some inactives read as strong as hits;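 span of the calcium signal over five minutes; 0% = vehicle and 100% = native peptide agonist; compound fluorescence can raise it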
Numbers without * were called inactive; & = joins results of further samples. These rows are one share of the data; the hit share may differ from the screen's.

The first three compounds as a preview:
SMILES | NPYLR7 ag | NPYLR7 ag max-min
CC(=O)Nc1nc(SCc2ccccc2C)[nH]c(=O)c1NC(=O)c1cccs1 | 0 | 0
CC1(C(=O)NS(=O)(=O)c2cccc(OC(F)F)c2)CCN1C(=O)c1ccccc1CCc1ccccc1 (stereo not drawn) | 2 | 1
Cc1cnn(-c2cc(N3CC[C@@H](c4ccc5c(c4)OCO5)[C@H](O)C3)ncn2)c1 | 17 | 5

Main list (from the top)
SMILES | NPYLR7 ag | NPYLR7 ag max-min
CC(=O)Nc1nc(SCc2ccccc2C)[nH]c(=O)c1NC(=O)c1cccs1 | 0 | 0
CC1(C(=O)NS(=O)(=O)c2cccc(OC(F)F)c2)CCN1C(=O)c1ccccc1CCc1ccccc1 (stereo not drawn) | 2 | 1
Cc1cnn(-c2cc(N3CC[C@@H](c4ccc5c(c4)OCO5)[C@H](O)C3)ncn2)c1 | 17 | 5
O=C(NCCc1n[nH]c2c1CCCC2)C1CCN(Cc2ccco2)CC1 | 8 | 4
CCC1(CC)CCN(C(=O)c2cc(CN3CCCC(O)C3)on2)C1 (stereo not drawn) | 0 | -1
CCS(=O)(=O)Nc1cccc(N2CCC(NC(C)c3ccccc3Cl)CC2)c1 (stereo not drawn) | 23 | 8
O=C(OCc1cc(=O)oc2ccc3ccccc3c12)C1=CN2CCS(=O)(=O)N=C2C=C1 | 2 | 8
O=C(Nc1ccccc1)c1cn(Cc2ccccc2)nc1OCc1ccccc1 | 7 | -4
CCOC(=O)Cc1c(C)nc2ncnn2c1N1CCN(C(=O)C=C(C)C)CC1 | 31 | 18
Cc1cccc(/C=C2/SC(=O)N(CCC(=O)NC(C)C3CC4CCC3C4)C2=O)c1 (stereo not drawn) | -5 | -11
CC(=O)c1cccc(NC(=O)CSC2=NCCS2)c1 | 8 | 2
COc1cc(Br)ccc1OCC(=O)N=Nc1c(O)n(C)c2ccc(C)cc12 | 12 | 4
CCOc1ccccc1C(=O)Nc1ccc(N2CCN(C(=O)C(CC)c3ccccc3)CC2)nc1 (stereo not drawn) | 6 | 11
O=C1OCCN1Cc1ccc(Nc2nccc(C(F)(F)F)n2)cc1 | 8 | 6
CCOc1ccc(NC(=O)N2CCc3cc(OC)c(OC)cc3C2CNC(=O)CC(C)C)cc1 (stereo not drawn) | -10 | -4
CN(C(=O)c1cnn(-c2ccccc2)c1)C1CCCN(C2Cc3ccccc3C2)C1 (stereo not drawn) | -3 | -5
O=C(Nc1c(C(=O)c2ccccc2)cc(Br)c2c1C(=O)c1ccccc1C2=O)c1ccccc1Br | -6 | 1
CCC(NC(=O)CCC(=O)NC1CCCCCCC1)c1ccnn1C (stereo not drawn) | -1 | -1
Fc1cccc(N=c2oc3ccc(Br)cc3cc2-c2nc3ccccc3[nH]2)c1 | -3 | -11
CC(Sc1nnnn1C)c1nc2scc(-c3cccs3)c2c(=O)[nH]1 (stereo not drawn) | 3 | 2
C#CCN(C)C(=O)c1ccc(-c2ccc(Oc3ccccc3)cc2)s1 | 2 | 0
CC(C)(C)C(=O)NCC1CCCN(Cc2ccncc2Cl)C1 (stereo not drawn) | 2 | 2
Cc1ccccc1-c1ncc(CN2CCC(CCC(=O)Nc3ccccc3)CC2)cn1 | 11 | 6
O=C1COCc2cc(-c3ccccc3)ccc2N1CCN1CCOCC1 | -6 | -6
CC(C)N(C(=O)Cn1c(CCNC(=O)C2CCCCC2)nc2ccccc21)c1ccccc1 | -7 | -6
New compounds follow
SMILES | NPYLR7 ag | NPYLR7 ag max-min
CCNC(=O)N(Cc1ccc(F)cc1)Cc1cc(NC(=O)c2ccccc2Cl)ccc1N(C)C | -4 | 8
CCc1ccccc1NC(=O)c1sc2nc3c(cc2c1N)C(=O)CC(C)(C)C3 | 0 | 5
O=C(c1cc(-c2cccs2)nc2ccccc12)N1CCN(C(=O)C2CC2)CC1 | 0 | 0
CC1=Nc2nnnn2C(c2ccccc2)C1 (stereo not drawn) | 21 | 28
COc1ccc(CC(=O)NC(C)c2nnc(SCc3cccc(OC)c3)n2-c2ccc(C)cc2)cc1 (stereo not drawn) | -8 | -6
Cc1ccc(-c2nnc(CCC(=O)NC3CCCC3)c(=O)[nH]2)cc1Cl | 5 | 3
CCCCN(C=O)c1c(CC)nc2ccc(C(=O)N3CCN(C(C)=O)CC3)cn12 | 6 | -3
CS(=O)(=O)c1ccccc1C(=O)N(Cc1ccccn1)c1nc2c(Cl)cccc2s1 | -4 | -9
CCN(CC)CC(C)OC(=O)c1ccc(Cl)cc1Cl (stereo not drawn) | -1 | -7
NC(N)=Nc1nc(CSCCC(N)=NS(N)(=O)=O)cs1 | -9&-12&-13&-1&0 | -15&-15&-25&-23&0
COC(=O)CCCCCCCCC(=O)N[C@@H](C)C(=O)N1CCC(C(=O)N2CCOCC2)CC1 | 26 | 28
CCOC(=O)CN1CCN(c2cccc3ccccc23)C(=O)C1C (stereo not drawn) | -2 | 6
CCOc1cn2c(cc1=O)C(=O)N(CCNC(=O)c1ccc(F)c(F)c1)CC2 | 14 | 3
CN(CCC(=O)NCC1Cc2cc(-c3cnc4ccccc4c3)cc(F)c2O1)C1CCS(=O)(=O)C1 (stereo not drawn) | 7&-8 | 2&-9
CCCn1c(=O)c2c(nc3n2CC(C)CN3c2ccccc2)n(C)c1=O (stereo not drawn) | 14 | 6
COC(=O)CCCC(=O)N1CCN(CC(OCc2cccc(Cl)c2)c2cccc(OC)c2)CC1 (stereo not drawn) | -6 | -2
COc1ccc(-c2ccnc3n[nH]c(-c4cccc(F)c4)c23)c(C)c1 | 24 | 21
O=C(NC1CCCC1)c1nc(-c2cccs2)no1 | 4 | 3
CCOC(=O)C1CCN(C(=O)CCCSc2nnc(-c3ccc(C)cc3)n2-c2ccccc2OC)CC1 | -4 | 5
CCc1c(C)[nH]c2c1C(=O)C(CN1CCOCC1)CC2 (stereo not drawn) | -1&0&3 | -7&-9&-35
O=c1[nH]c(O)c(C=C2C=Nc3ccccc32)c(=O)[nH]1 | 1&-5 | -2&-9
O=C(c1ccccc1Cl)N1CCN(c2nc(Cc3ccccc3)nc3cc(Cl)ccc23)CC1 | 3 | 19
O=C(CSc1nc2ccccc2s1)N/N=C\c1ccc(Br)cc1 | -1 | -10
O=C(Nc1cccc(F)c1)N1CCc2c([nH]c3ccccc23)C1c1ccccc1F (stereo not drawn) | -6 | -14
CCNC(=O)[C@@H]1C[C@@H](N)CN1C(=O)Cn1nc(C)c(CC)c1C | -2 | 8

An excerpt of these results, with values under each structure:
Values run as follows: NPYLR7 ag | NPYLR7 ag max-min
- CCN(CC)CC(C)OC(=O)c1ccc(Cl)cc1Cl (stereo not drawn)
 : -1 | -7
- NC(N)=Nc1nc(CSCCC(N)=NS(N)(=O)=O)cs1
 : -9&-12&-13&-1&0 | -15&-15&-25&-23&0
- COC(=O)CCCCCCCCC(=O)N[C@@H](C)C(=O)N1CCC(C(=O)N2CCOCC2)CC1
 : 26 | 28
- CCOC(=O)CN1CCN(c2cccc3ccccc23)C(=O)C1C (stereo not drawn)
 : -2 | 6
- CCOc1cn2c(cc1=O)C(=O)N(CCNC(=O)c1ccc(F)c(F)c1)CC2
 : 14 | 3
- CN(CCC(=O)NCC1Cc2cc(-c3cnc4ccccc4c3)cc(F)c2O1)C1CCS(=O)(=O)C1 (stereo not drawn)
 : 7&-8 | 2&-9
- CCCn1c(=O)c2c(nc3n2CC(C)CN3c2ccccc2)n(C)c1=O (stereo not drawn)
 : 14 | 6
- COC(=O)CCCC(=O)N1CCN(CC(OCc2cccc(Cl)c2)c2cccc(OC)c2)CC1 (stereo not drawn)
 : -6 | -2
- COc1ccc(-c2ccnc3n[nH]c(-c4cccc(F)c4)c23)c(C)c1
 : 24 | 21
- O=C(NC1CCCC1)c1nc(-c2cccs2)no1
 : 4 | 3
- CCOC(=O)C1CCN(C(=O)CCCSc2nnc(-c3ccc(C)cc3)n2-c2ccccc2OC)CC1
 : -4 | 5
- CCc1c(C)[nH]c2c1C(=O)C(CN1CCOCC1)CC2 (stereo not drawn)
 : -1&0&3 | -7&-9&-35
- O=c1[nH]c(O)c(C=C2C=Nc3ccccc32)c(=O)[nH]1
 : 1&-5 | -2&-9
- O=C(c1ccccc1Cl)N1CCN(c2nc(Cc3ccccc3)nc3cc(Cl)ccc23)CC1
 : 3 | 19
- O=C(CSc1nc2ccccc2s1)N/N=C\c1ccc(Br)cc1
 : -1 | -10
- O=C(Nc1cccc(F)c1)N1CCc2c([nH]c3ccccc23)C1c1ccccc1F (stereo not drawn)
 : -6 | -14
- CCNC(=O)[C@@H]1C[C@@H](N)CN1C(=O)Cn1nc(C)c(CC)c1C
 : -2 | 8

(more compounds)
SMILES | NPYLR7 ag | NPYLR7 ag max-min
C=CCCC(O)CN(Cc1ccco1)Cc1ccccc1OC (stereo not drawn) | 18 | 13
Cc1ccc(-c2nc3ccc(Br)cc3c(=O)o2)cc1[N+](=O)[O-] | -18 | -21
CCc1cccc2c(CC(=O)N(C)Cc3nccn3C)c[nH]c12 | -1 | -2
Cc1cc(C)[n+](C)n1-c1ccccc1 | 3&0 | 1&-7
O=C1CC2(CCCC2)CC(=O)N1CCCCN1CCN(c2ncccn2)CC1 | -4&13&6 | -7&13&-5
CC(=O)Nc1ccc(-c2ccnc3c2CC(C)(C(=O)NCc2ccco2)O3)cc1 (stereo not drawn) | 2 | 5
O=C(Nc1ccc(Cl)c(Cl)c1)c1c(O)c2ccccc2[nH]c1=O | 6 | 6
O=C(CCC1CCCC1)N1CCCC(CO)(Cc2ccc(F)cc2)C1 (stereo not drawn) | 16 | 7
Cc1ccnc(SCCCn2c(N3CCCCCC3)nc3c2c(=O)[nH]c(=O)n3C)n1 | -7 | -7
COc1cc(C2=NC(=CC3=Cc4ccccc4OC3)C(=O)O2)cc(OC)c1OC | 11 | 6
Cc1ccc(-c2ccc(=O)n(CCCNS(=O)(=O)c3cccnc3)n2)cc1 | -2 | -4
CCn1nc(C)c(C(=O)NCc2ccccc2-n2cncn2)c1C | -7 | -9
O=C(NCc1cc(-c2ccc3c(c2)OCCO3)on1)c1c[nH]c2ccccc12 | 2 | 2
Clc1ccc(CN2CCN(c3ncnc4c3cnn4-c3ccccc3)CC2)c(Cl)c1 | 12 | 11
CC(C)c1ccc(C2=NN3CCS(=O)(=O)N=C3S2)cc1 | 3&-7 | 0&-6
COCCNC(=O)C1(C)CCCN(Cc2ccccc2N(C)C)C1 (stereo not drawn) | 3 | 4
Cc1cc(C)cc(-n2nnc3c(=O)n(CC(=O)N4CCCc5ccccc54)cnc32)c1 | -2 | -5
CNC(=O)Cn1cc(OC)c(=O)cc1CSc1nnc(C)s1 | -6 | -13
CN(Cc1ccc(-n2cccn2)cc1)C(=O)C(=O)c1cccnc1 | 0 | -1
CCSC1CCC(N(C)C(=O)C2CC(=O)N(CC)C2)C1 (stereo not drawn) | -3 | -5
Cc1c(Cl)cccc1-c1ccc(/C=N\n2cnnc2)o1 | -7 | -13
O=C(CCCCC(=O)NN=Cc1ccc(Br)o1)NN=Cc1ccc(Br)o1 | 2 | 3
O=C(N[C@@H]1CCCCC1NC(=O)C1CCCN(C(=O)Cc2ccccc2)C1)c1ccc(F)cc1 (stereo partly drawn) | -1 | 2
CC(C)(C)OC(=O)COC(=O)c1cnc2ccccc2n1 | 10 | 7
CCc1nc2ccc(C(=O)NCCNC(C)=O)cn2c1N(CC)C(=O)NCCc1ccccc1 | -4 | -12
(cont.)
SMILES | NPYLR7 ag | NPYLR7 ag max-min
O=C(C1CCC1)N1CCCN(c2cc(Oc3ccc(F)c(Cl)c3)ncn2)CC1 | -12 | 1
CNc1nc2cnc(Nc3cccc(C)c3)cc2n1-c1cccc(C(F)(F)F)c1 | 10 | -1
CC1CCC2(CC1)NC(=O)N(NC(=O)CSc1ncccn1)C2=O (stereo not drawn) | 8 | 3
COc1ccc(-n2nnc(C(=O)OCc3nc(-c4ccccc4OC)oc3C)c2C)cc1 | 11 | 5
O=C(CCn1c(=O)[nH]c(=O)c2ccccc21)Nc1ccccc1 | 2 | 1
O=C(c1ccc(-c2ccccc2)cc1)N(Cc1nc2cc(Cl)ccc2o1)C1CCCC1 | 6 | 6
CN1CC2(CCCN(C(=O)c3cnc4c(c3)nnn4C)CC2)OC1=O (stereo not drawn) | 3 | -1
COc1ccc(CNCc2cccnc2N2CCCCCCC2)cc1F | 17 | 14
CNS(=O)(=O)c1ccc(CN(Cc2ccsc2)Cc2ccco2)cc1 | 0 | 1
CCOC(=O)c1nn(Cc2ccccc2)c2c1CN(C(=O)CCc1scnc1C)CC2 | 19 | 3
CCCS(=O)(=O)N1CCN(c2nc(C)nc(C)c2Cc2ccccc2F)CC1 | 27 | 34
COc1ccc(C(=O)Nc2ccc(-c3nc4ccccc4c(=O)o3)cc2)cc1 | -10 | -14
Cc1ccc(CN2C[C@@H](C(=O)O)C[C@H](C(=O)NCc3ccncc3)C2)cc1 | 5 | 4
COc1cccc(-c2cccc(-c3ccc(NC(=O)Cc4ccc(F)cc4)cc3)n2)c1 | -12 | -8
COc1ccc(N2CCn3c(SCC(C)=O)nnc32)cc1 | 5 | 4
COc1ccc2[nH]cc(C3=CCN(c4c(F)cc(C#N)cc4F)CC3)c2c1 | 7 | -51
CCC(C)(C)NC(=O)C(=O)N1CCC2(CC1)CN(C)CCN2C | 0 | -1
